Vif A3G = inhibitors of Vif binding to APOBEC3G peptide, primary screen, biochemical, TR-FRET, GST-Vif 1-94, biotin-A3G peptide, dose response retest (AID 1117319). hit rate 0.57% among 260,000. Virion infectivity factor (Human immunodeficiency virus type 1 group M subtype B (isolate …. TR-FRET GST-Vif / biotin-A3G peptide binding; higher % means a stronger effect; test concentration not given here; strong numbers were not always called active. one-dose inhibition, %; IC50 in µM for titrated hits;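 active = above the screen mean plus three standard deviations and confirmed in dose response; inconclusive = results disagree or hit not tested in dose response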;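 note: Vif residues 1-94 fused to GST binding biotinylated APOBEC3G peptide 110-148; 0% = full assay without inhibitor and 100% = GST in place of GST-Vif; retest series ran down from 100 µM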
LANA-H2B inh = blockers of LANA interaction with H2A/H2B – biochemical, FP readout, HTS, primary screen | Protein LANA1 (Human herpesvirus 8 type P (isolate GK18)), Q9QR71 | cell-free LANA-H2A/H2B peptide, fluorescence polarization | inhibition, % (no concentration beside the values) | hit rate 0.6% among 320,000; in the data active = inhibition mostly above about 10%, no sharp cut-off; inactive = mostly below about 6.7%;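 note: stock transfer was 7.5 nL into about 10 µL; 0% = median of vehicle wells and 100% = median of positive control wells; one replicate is shown; the record names a cut of 25% in any replicate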
Target sequence (Q9QR71 whole entry, looked up): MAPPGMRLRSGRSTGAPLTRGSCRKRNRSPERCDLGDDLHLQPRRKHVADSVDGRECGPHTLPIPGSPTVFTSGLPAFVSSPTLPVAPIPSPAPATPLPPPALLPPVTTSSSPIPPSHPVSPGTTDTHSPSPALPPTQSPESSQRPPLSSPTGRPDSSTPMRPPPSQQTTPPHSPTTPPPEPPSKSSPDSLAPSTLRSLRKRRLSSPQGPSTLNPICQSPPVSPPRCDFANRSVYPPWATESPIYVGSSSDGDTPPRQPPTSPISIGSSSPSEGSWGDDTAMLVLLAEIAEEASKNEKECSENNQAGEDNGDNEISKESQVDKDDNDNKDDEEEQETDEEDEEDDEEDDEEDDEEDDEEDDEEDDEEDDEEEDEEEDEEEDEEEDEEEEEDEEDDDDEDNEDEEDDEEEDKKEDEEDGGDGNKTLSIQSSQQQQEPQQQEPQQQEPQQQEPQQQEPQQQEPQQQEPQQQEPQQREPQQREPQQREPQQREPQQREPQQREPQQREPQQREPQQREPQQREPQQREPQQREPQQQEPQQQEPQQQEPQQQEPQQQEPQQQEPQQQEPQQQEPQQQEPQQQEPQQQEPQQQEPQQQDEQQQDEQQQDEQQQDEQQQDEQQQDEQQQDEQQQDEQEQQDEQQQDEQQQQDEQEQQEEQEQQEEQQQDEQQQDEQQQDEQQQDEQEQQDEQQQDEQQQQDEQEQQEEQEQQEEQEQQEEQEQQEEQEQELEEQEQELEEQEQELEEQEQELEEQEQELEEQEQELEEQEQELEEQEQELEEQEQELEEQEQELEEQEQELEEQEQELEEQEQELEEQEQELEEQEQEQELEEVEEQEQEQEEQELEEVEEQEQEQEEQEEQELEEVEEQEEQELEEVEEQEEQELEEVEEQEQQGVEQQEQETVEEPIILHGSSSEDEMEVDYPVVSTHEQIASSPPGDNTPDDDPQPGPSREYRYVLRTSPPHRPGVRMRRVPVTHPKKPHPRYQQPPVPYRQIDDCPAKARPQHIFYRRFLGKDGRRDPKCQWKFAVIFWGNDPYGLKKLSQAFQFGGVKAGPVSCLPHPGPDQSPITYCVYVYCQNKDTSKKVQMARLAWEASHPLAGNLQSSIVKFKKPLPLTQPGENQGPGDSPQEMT
UCH37 DUB inh = inhibitors of human UCH37 deubiquitinase, primary screen, biochemical, Ub-AMC cleavage, fluorescence | Ubiquitin carboxyl-terminal hydrolase isozyme L5 (Homo sapiens), Q9Y5K5 | purified proteasome/UCH37 | inhibition, % (no concentration beside the values) | hit rate 0.33% among 330,000 | AID 588478, 2011;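 active = mean of two replicates above 20%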;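 note: 0% = compound-free wells with enzyme and 100% = wells lacking proteasome; stock transfer was 100 nL into about 20 µL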
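System: Proteasome-associated human UCH37 deubiquitinase; Input: 0.15 nM proteasome in added enzyme buffer; Also added: Ub-AMC substrate from 1 µM stock; Incubation: 30 min compound-proteasome preincubation then 25 min substrate reaction, room temperature; Detection: fluorescence, ex 355 nm, em 460 nm; Read-out: % inhibition of Ub-AMC cleavage fluorescence; Benchmarks: no-proteasome and no-compound wells.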
Ecoli growth = E. coli growth inhibition, primary screen, OD600. Escherichia coli growth, 23 h; active compounds read low. OD600 absorbance (test concentration not listed). hit rate 0.21% among 330,000;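 active = OD600 absorbance below the run mean of sample wells minus 3.6 SD, in any replicate, cut at about 0.56 in these data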;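 note: stock transfer was 300 nL into about 60 µL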
B2AR ag = beta2AR agonists driving receptor internalization, primary screen, cell-based, FAP fluorogen, flow cytometry; Beta-2 adrenergic receptor (Homo sapiens), P07550; Am2.2-beta2AR cells; reference of the scale not given here; response, % (test concentration not listed); hit rate 0.43% among 340,000; AID 504454, 2011;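 active = response above a set limit, near 3 SD of response in nonfluorescent compounds, cut at about 42% in these data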;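 note: stock transfer was 100 nL into about 11 µL; a reference agonist was the positive control; negative values mostly stem from fluorescent compounds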
HNF4A DNA FP = change in binding of human HNF4A to DNA, primary screen, biochemical, fluorescence polarization, FITC-DNA; Hepatocyte nuclear factor 4-alpha (Homo sapiens), P41235; activity change, % at 10 µM; AID 1224865, 2016; 1 h; hit rate 0.3% among 360,000; in the data active = activity change above about 30%, passing the limit was not always enough;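 note: controls were the assay level and a saturating level of protein; the project sought stronger binding though the title names inhibitors; some compounds called inactive have numbers as strong as hits; positive values seem to mean higher polarization but the record does not say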
A1 inh = caspase 3/7 activation in MEF A1-2A-BIM cells, primary screen, A1 inhibitor project, cell-based, luminescence, HTS; Caspase-Glo 3/7 luminescence, 3 h; percent of clofoctol response, vehicle zero; hit rate 0.066% among 330,000; caspase activation, % (concentration not given with the values);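 active = over half of replicate activation scores above 10%, or exactly half above 10 with the replicate mean above 10; inconclusive = replicate mean below 10 yet half the replicates above 10; inactive = over half of replicates below 10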;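 note: wells of about 30 µL received 50 nL stock; many hits fall short of the cut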
Active calls of the source: *; i = inactive; ? = inconclusive; . = no result given.

SMILES	Vif A3G	LANA-H2B inh	UCH37 DUB inh	Ecoli growth	B2AR ag	HNF4A DNA FP	A1 inh
CC(C)C(=O)NC(NC(=S)NC1CCS(=O)(=O)C1)C(Cl)(Cl)Cl (stereo unspecified)	21.7%	5.2	0.4	0.694	7.2	-2.6	0.1
Cn1c(=O)c2cc(S(=O)(=O)NC(C(=O)NC3CCCCC3)c3ccccc3)ccc2n(C)c1=O (stereo unspecified)	-1.7%	.	.	.	4.0	-1.2	.
O=C(/C=C/c1cccnc1)c1ccccc1O	-9.6%	-3.5	2.0	0.657	15.3	-1.9	0.7
O=C(Nc1ccc(Cl)cn1)C1CCN(S(=O)(=O)c2cccs2)CC1	2.8%	-4.3	2.0	0.713	2.5	-0.9	-0.4
COc1ccc(CNC(=O)C2CCN(S(=O)(=O)c3cccnc3)CC2)cc1	.	5.7	2.2	0.719	-1.7	-2.7	?
CN(C)CCNC(=O)c1sc2cccc(F)c2c1Cl	?	0.1	3.8	0.693	3.7	3.5	0.7
O=C(CN1C(=O)/C(=C2/SC(=S)N(CCS(=O)(=O)O)C2=O)c2ccccc21)Nc1cccc(C(F)(F)F)c1	4.8%	6.4	12.1	0.714	1.6	4.3	0.8
Cc1cc(C)nc(SC2CC(=O)N(c3ccc(C)c(C)c3)C2=O)n1 (stereo unspecified)	.	16.0*	2.2	0.671	-17.4	1.8	0.3
O=C(/C(=C(\[O-])c1ccccc1)[n+]1ccc2ccccc2c1)c1ccccc1	-4.2%	-0.8	3.3	.	2.2	22.8	-0.4
COc1ccc(NC(=O)CSc2nc(O)cc(=O)n2-c2ccc(OC)cc2)cc1	.	-2.5	-0.3	0.685	-4.1	-1.0	0.6
O=C(CCC(=O)Nc1ccccc1Cl)N/N=C/c1c[nH]c2ccccc12	2.5%	2.9	.	.	1.5	4.3	0.1
COc1ccc(-n2ccc(-c3nn(-c4cccc(C(F)(F)F)c4)ccc3=O)n2)cc1	-5.0%	-2.7	0.7	0.728	2.4	0.7	0.2
CCO[C@H]1OC(C(=O)N2CCOCC2)=C[C@@H](c2ccc(C(F)(F)F)cc2)[C@@H]1CCCO	0.4%	-4.7	6.9	0.799	3.4	4.8	0.5
O=C(Nc1ccc(Cl)cc1)OCc1cc(-c2ccccc2)on1	-2.4%	1.2	-6.5	0.691	-2.1	-0.4	0.4
Cc1nc2ccccc2c2nc(NC(=O)C(F)(F)F)nn12	0.1%	-0.2	-0.8	0.674	3.8	0.4	0.3
Cc1nnc(SC(C)C(=O)Nc2c(C)n(C)n(-c3ccccc3)c2=O)n1N (stereo unspecified)	13.7%	0.6	-2.1	0.677	0.4	1.4	-0.1
COc1ccc(Br)cc1/C=N/N1CCN(Cc2ccccc2Cl)CC1	.	1.1	.	.	-0.9	-0.2	0.7
COc1ccc(C(=O)NCc2ccc(F)cc2)cc1S(=O)(=O)N1CCCC1	-0.8%	.	0.0	0.678	3.1	-1.5	.
COc1ccc(OC)c2[nH]c(C(=O)N3CCC(C(=O)O)CC3)cc12	1.8%	-2.4	-8.2	0.654	-7.5	-0.5	?
O=C(O)CCn1c(=O)n(CCC(=O)O)c(=O)n(CCC(=O)O)c1=O	-2.1%	3.5	0.4	0.639	-6.8	-3.5	-0.8
c1ccc(SCCCCNC2CCCC2)cc1	.	0.6	1.7	0.664	2.6	1.3	0.8
COc1cccc(N=NC2C(=O)N(C(N)=S)N=C2C)c1 (stereo unspecified)	.	0.1	13.6	0.663	3.3	0.5	-7.1
O=C(C[C@@H]1C/C=C\CC[C@H](Cc2ccc(F)cc2)C(=O)OC[C@@H]2CCCN2C1=O)NCCO	.	1.7	2.1	.	-1.4	0.2	0.7
Cc1ccc(Cn2c(SCC(=O)N/N=C/c3ccc(C)o3)nc3ccccc32)cc1	7.0%	1.0	.	.	2.2	1.4	1.1
COC(=O)C1=CNC=C(C(=O)OC)C1c1cccc(OC)c1	-0.9%	0.8	i	0.763	-13.8	2.5	0.6
COC(=O)CNC(=O)CSc1nnc(C)c(=O)[nH]1	.	-0.1	5.6	0.688	-9.2	4.3	0.6
Cc1cc(Cl)ccc1OCC(=O)NNC(=O)c1cccs1	6.0%	5.0	4.6	0.733	-12.4	0.3	-0.4
N#Cc1ccccc1NC(=O)COC(=O)c1c[nH]c2ccccc12	-0.3%	.	1.4	0.651	-2.2	0.3	.
CCCCCn1nc(C(=O)OCC(=O)c2c(N)n(C)c(=O)n(C)c2=O)c2ccccc2c1=O	.	1.8	1.3	0.676	3.1	-1.4	0.8
O=c1oc2ccccc2n1CCc1ccccc1	2.1%	-1.6	0.6	0.625	4.2	1.0	-0.5
O=C(c1sccc1-c1ccccc1)N1CCN(S(=O)(=O)c2ccccc2F)CC1	5.8%	-7.6	4.1	0.68	4.1	-0.6	0.1
Nc1nc(N2CCCCC2)nc(N2CCCCC2)n1	-0.9%	-2.1	1.0	0.679	-3.6	0.6	-0.1
Cc1[nH]c(=O)[nH]c(=O)c1/C=C/C(=O)O	-0.9%	-4.4	5.1	0.699	0.2	0.8	1.1
COc1ccc(OC)c(Nc2ncnc3ccc(Br)cc23)c1	.	0.5	-17.6	0.661	0.8	2.5	-0.2
COc1ccc(CN2CCC(C(N)=O)CC2)cc1OCc1ccccc1	.	-2.0	1.7	0.711	0.8	2.0	0.1
O=C(NNC(=O)[C@@H]1CCCC[C@@H]1C(=O)O)Nc1ccccc1	3.6%	2.6	4.4	0.697	3.1	4.4	0.6
O=C1[C@@H]2[C@@H]3C[C@@H]([C@H]4ON=C(c5ccc(Cl)cc5)[C@@H]34)[C@@H]2C(=O)N1c1ccc2c(c1)OCO2	.	-2.3	1.2	0.705	-6.1	0.6	1.2
Cc1nc2c(C(=O)N3CCCCC3)cnn2c(C)c1Cc1ccccc1F	-7.0%	0.3	-53.9	0.731	-14.9	1.4	0.8
O=C1N(c2ccccc2)C[C@@H]2C[C@@H](c3cc4ccccc4o3)N3CCC[C@@]123	?	.	-1.1	0.712	-0.2	-0.4	.
COc1cc(-c2ccc3oc(-c4ccsc4)cc3c2)cc(OC)c1OC	.	-8.5	-1.0	0.676	2.1	-2.5	0.1
Cc1ccccc1-c1nnc(SCC(=O)NC2CCS(=O)(=O)C2)n1C (stereo unspecified)	.	-5.3	0.9	0.669	-0.4	2.9	0.9
CC(Sc1ncnc2c1cnn2-c1ccccc1)C(=O)NCC1CCCO1 (stereo unspecified)	3.3%	-5.3	3.9	0.724	1.4	3.4	-6.7
CC/C(=N\NC(=O)c1ccc2c(c1)OCO2)c1ccccc1	.	-0.5	.	.	1.9	-0.3	1.1
O=C(O)CCn1c(Cc2ccccc2)nc2ccccc21	.	-5.6	3.9	0.66	-7.8	1.9	-0.3
COc1ccccc1N(CC(=O)Nc1ccccc1C(F)(F)F)S(=O)(=O)c1cccs1	.	-15.5	2.7	0.679	1.9	1.0	0.2
Cc1cccc(N=Nc2c(C)nn(-c3ccccc3)c2N)c1C	.	-1.9	2.7	0.677	0.0	-5.2	0.0
CCCCOCCCNC(=O)c1ccc(NC(C)=O)cc1	13.6%	-5.9	2.1	0.627	-7.9	-4.0	1.0
NC(=O)c1ccsc1NC(=O)COC(=O)c1ccc(Cl)nc1	5.2%	-1.4	0.6	0.635	2.5	-4.2	-0.6
CNC(C)c1ccc(S(N)(=O)=O)cc1 (stereo unspecified)	5.9%	-3.5	0.3	0.686	3.1	-5.4	-0.2
Cn1c(O)c(N=NC(=O)CNC(=O)c2cccnc2)c2ccccc21	.	-1.1	9.5	0.676	-9.5	0.5	0.8
CC(C)N(C)S(=O)(=O)c1ccc(NC(=O)CSC(=S)N2CCCC2)cc1	-1.1%	-4.4	2.6	0.717	-13.0	1.5	1.2
O=C(NNc1cccc(Cl)n1)c1ccc(Cl)cc1Cl	-0.5%	-2.6	4.7	0.737	-2.4	1.1	0.4
O=C(NCc1ccc(F)cc1)C1CCN(C(=O)NCc2ccccc2)CC1	3.2%	1.9	5.1	0.661	-8.8	0.7	-0.1
c1ccc(-c2nnc(N3CCOCC3)nc2-c2ccccc2)cc1	-0.8%	-3.6	5.2	0.688	4.3	4.5	0.0
O=C(CCCCCCCC(=O)NNC(=O)Nc1ccccc1)NNC(=O)Nc1ccccc1	-7.9%	2.6	1.9	0.699	16.3	-1.9	0.1
CC1(C)CC(OC(=O)c2ccccc2)CC(C)(C)N1	?	-0.9	2.5	0.65	-4.2	2.4	0.8
CCC(=O)Nc1nnc(-c2ccco2)o1	0.6%	-6.3	4.4	0.731	-7.7	3.1	0.3
Cn1c(CN2CCC(C(N)=O)CC2)c(C#N)c2ccccc21	.	-0.2	1.2	0.666	6.1	0.9	-0.3
Cc1ccc(C)c(N(C(=O)c2snc(C(N)=O)c2N)C(C(=O)NCC2CCCO2)c2ccc(C)o2)c1 (stereo unspecified)	.	-5.3	-317.4	0.635	-3.1	-2.3	0.5
CC(C)CCNC(=O)NC(=O)COC(=O)CCN=C1NS(=O)(=O)c2ccccc21	-2.2%	-4.0	-1.7	0.701	-5.9	2.1	0.4

Other entries
SMILES	Vif A3G	LANA-H2B inh	UCH37 DUB inh	Ecoli growth	B2AR ag	HNF4A DNA FP	A1 inh
C=CCNC(=S)Nc1ccc(Cl)cc1F	7.3%	0.2	0.8	0.643	-1.1	5.7	0.0
Cc1cc(-c2onc(C)c2C(=O)Nc2ccc(C(F)(F)F)cc2)no1	?	-1.1	.	.	8.6	4.3	3.3
Cc1c(Br)c(O)c(Br)c(O)c1/C=N/n1c(-c2ccccc2)n[nH]c1=S	2.5%	-0.8	.	.	0.6	-3.9	-0.9
O=C1CN(C(=O)COc2ccc([N+](=O)[O-])cc2Cl)c2ccccc2N1	-1.1%	-1.3	4.9	0.697	0.9	1.2	-2.0
COc1ccc(-c2cc3c(=O)n(CC(=O)NCc4ccc(C)cc4)ncn3n2)cc1	.	0.1	-1.2	0.789	14.1	1.2	0.7
Oc1ccc(C(c2nnnn2C2CCCC2)N2CCc3ccccc3C2)cc1 (stereo unspecified)	5.3%	0.8	6.2	0.752	11.3	0.4	0.1
Cc1cccc(N(CC(=O)Nc2ccc(CC#N)cc2)S(C)(=O)=O)c1	-5.0%	-0.9	0.2	0.714	0.6	-1.2	0.0
Cc1cc2cc(CNC(=O)Nc3ccccc3)ccc2n1C	-5.8%	-0.4	1.1	0.674	-3.2	-8.0	0.0
Cc1ccc(S(=O)(=O)Nc2cc3c(cc2C#N)OCO3)cc1C(N)=O	.	-8.1	4.5	0.684	4.8	2.9	-0.6
COc1ccc(C)cc1S(=O)(=O)N(C)CC(=O)N1CCC(C)CC1	14.2%	2.1	0.4	0.681	-1.6	2.0	-0.6
Cc1ccc(N2C(=O)CC(NNc3nc4ccccc4s3)C2=O)cc1 (stereo unspecified)	23.5%	2.4	2.8	0.734	-2.1	1.2	1.0
O=C(COc1ccc(F)cc1)Nc1ccc2c(c1)OCCO2	7.1%	5.8	3.3	0.69	-5.1	4.8	0.4
CCOc1ccccc1N=Nc1c(C)[nH]n(-c2ccccc2)c1=O	.	1.0	3.5	0.729	1.8	1.1	0.9
